Screening results from PubChem BioAssay.
ClpP mod = qHTS Assay for Activators of ClpP. ATP-dependent Clp protease proteolytic subunit (Bacillus subtilis (strain 168)), P80244. purified B. subtilis ClpP, FRET peptide cleavage, 20 min. Potency, µM (titrated, usually from 57.5 µM), for the others: at the top dose activity change, negative = active. hit rate 1.9% among 340,000; active = well fitted falling curve with a large enough effect; inconclusive = small, poorly fitted or top-dose-only effect; inactive = no such curve, though single readings can be large or run the other way; note: potency is the fitted concentration of half-maximal effect; the source files actives as falling curves though it sought activators and does not explain the sign; nearly all actives have a fitted effect of over 65% in size; many hits overshoot -100%
Target sequence (P80244 whole entry, looked up): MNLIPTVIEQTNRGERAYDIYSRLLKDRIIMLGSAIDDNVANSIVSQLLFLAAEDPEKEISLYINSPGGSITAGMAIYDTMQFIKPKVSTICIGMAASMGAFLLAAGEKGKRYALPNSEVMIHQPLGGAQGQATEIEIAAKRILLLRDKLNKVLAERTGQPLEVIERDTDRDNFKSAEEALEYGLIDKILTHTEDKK
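FRET quenching reversal measured ClpP activation: 10 microg/mL B. subtilis ClpP at pH 8 with the FRET-FV decapeptide, read at 430 nm after 320 nm excitation. The 20-min minus 0-min signal was scaled between DMSO/no-enzyme wells and ADEP (5.8 microM final).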
PINK1 modulator = A Quantitative High throughput Screen to Identify Chemical Modulators of PINK1 Expression; AID 624263, 2012; Potency, µM (series often up to 76.6 µM), for the others: top-dose activation (PINK1 increase), usual class: activators; PINK1 immunofluorescence, high-content cytometry, 24 h; hit rate 0.2% among 410,000; active = well fitted activation curve with a large enough effect; inconclusive = small, poorly fitted or top-dose-only effect; inactive = flat fitted curve, though single readings scatter; cell line not stated here;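 note: potency is the fitted concentration of half-maximal effect; % of control where 0% means no effect; nearly all actives have a fitted effect of over 65% in size; a mitochondrial uncoupler was the plate control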
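Cells are seeded, rested 12 hours, then given compound at five concentrations or DMSO for 24 hours. After fixation, blocking and antibody staining, PINK1 amount and mitochondrial localization are scored; CCCP serves as control.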
Sfp inh = qHTS Assay for Inhibitors of Bacillus subtilis Sfp phosphopantetheinyl transferase (PPTase) | AID 1490, 2009 | hit rate 3.5% among 310,000 | 4'-phosphopantetheinyl transferase ffp (Bacillus subtilis), Q9F4F7 | Potency, µM, without a hit: max response, negative = inhibition, usual class: inhibitors | Biochemical Sfp PPTase activity, qHTS; active = well fitted inhibition curve with a large enough effect; inconclusive = small, poorly fitted or top-dose-only effect, or another doubt; inactive = no such curve, though single readings can be large or run the other way;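 note: the enzyme is Sfp with the accession as filed and its product quenches rhodamine fluorescence; potency is the fitted concentration of half-maximal effect; 0% = enzyme reaction without inhibitor and -100% = no enzyme wells; top concentration of the series not given in the record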
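Buffer: 50 mM Hepes-Na pH 7.6, 10 mM MgCl2, 0.01% Nonidet P-40, 0.01% BSA. Enzyme 15 nM, pre-exposed to compound 15 min; substrates then added and fluorescence change tracked over 30 min.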
gsp agonist = qHTS for Agonist of gsp, the Etiologic Mutation Responsible for Fibrous Dysplasia/McCune-Albright Syndrome: qHTS. gsp mutant cells, cAMP HTRF, 30 min; control for the full effect not named in the record. Potency, µM (top dose mostly 76.9 µM), inactives show at the top dose activation (cAMP increase), most hits filed as activators. hit rate 0.13% among 340,000. AID 624287, 2012; active = well fitted activation curve with a large enough effect; inconclusive = small, poorly fitted or top-dose-only effect, or another doubt; inactive = no such curve, though single readings can be large or run the other way; cell line not stated here;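 note: phosphodiesterase inhibitor Ro 20-1724 added with compounds to block cAMP breakdown; potency is the fitted concentration of half-maximal effect; nearly all actives have a fitted effect of over 60% in size; about a fifth of the inactives were tested at one dose only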
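Cells stably selected in G418 were plated at 2000/well, grown 16-24 hr, then given compounds in DMSO with the PDE inhibitor […] (300 uM solution added) for 30 min at 37C; cAMP was read by HTRF.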
D2 agonist = Beta-Arrestin HTS for Positive Allosteric Modulators of the Human D2 Dopamine Receptor: Agonists; D(2) dopamine receptor (Homo sapiens), P14416; DiscoveRx PathHunter D2 beta-arrestin, luminescence, 90 min; 100% = 57 uM dopamine signal; activation, % (test concentration not listed); hit rate 0.084% among 360,000; AID 624465, 2012; in the data active = activation above about 40%; inconclusive = about 15% to 40%; inactive = below about 15%; note: compound concentration not given in the record; the text of the record calls up to 30% inactive
Target sequence (P14416 whole entry, looked up): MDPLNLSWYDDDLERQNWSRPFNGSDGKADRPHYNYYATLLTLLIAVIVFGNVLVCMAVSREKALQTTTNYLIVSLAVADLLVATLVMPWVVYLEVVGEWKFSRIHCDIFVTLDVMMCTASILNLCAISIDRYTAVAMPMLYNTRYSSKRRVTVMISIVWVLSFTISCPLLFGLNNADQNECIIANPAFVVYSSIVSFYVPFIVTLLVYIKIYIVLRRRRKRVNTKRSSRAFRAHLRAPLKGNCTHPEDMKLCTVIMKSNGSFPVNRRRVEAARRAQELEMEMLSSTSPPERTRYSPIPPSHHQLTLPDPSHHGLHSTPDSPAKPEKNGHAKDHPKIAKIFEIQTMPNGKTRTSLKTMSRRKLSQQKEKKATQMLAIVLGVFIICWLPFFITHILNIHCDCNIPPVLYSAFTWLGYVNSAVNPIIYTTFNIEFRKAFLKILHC
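DiscoveRx PathHunter D2 beta-arrestin cells (2,100/well) attached overnight, then compound-stimulated 90 min at 37 C in HBSS/10 mM HEPES/0.1% Tween-20 buffer; beta-galactosidase complementation read by luminescence after 1 h at ambient temperature. Dopamine 57 uM final (EC100) as control.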
Menin-MLL FL inh = qHTS Assay for Inhibitors Targeting the Menin-MLL Interaction in MLL Related Leukemias: Competition With Fluorescein Labeled MLL-derived Peptide; Fluorescence polarization, fluorescein-MLL peptide displacement from menin; FP activity change, % at 61.4 µM; 290,000 tested, under 10 active; AID 1766, 2009; inconclusive = falling polarisation curve, or a change in total fluorescence; inactive = total fluorescence flat and polarisation flat or rising; no compound was filed as active; the % refers to the polarisation; negative = inhibition;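 note: % of control where 0% means no effect; inhibitors lower the polarisation; unlabelled MLL peptide was the positive control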
gsp antag = qHTS for Antagonists of gsp, the Etiologic Mutation Responsible for Fibrous Dysplasia/McCune-Albright Syndrome: qHTS; gsp-mutant cells, cAMP HTRF, 30 min; control for the full effect not named in the record; Potency, µM (series often up to 76.9 µM), inactives show at the top dose activity change, negative = inhibition, most hits filed as inhibitors; hit rate 0.4% among 340,000; AID 624288, 2012; active = falling curve of any shape with a large fitted effect; inconclusive = falling curve, mostly with a smaller effect; inactive = flat or rising curve; cell line not stated here;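 note: intracellular cAMP measured with PDE inhibitor Ro 20-1724 present during compound exposure; potency is the fitted concentration of half-maximal effect; % is set by controls: 0 for no effect and ±100 for the full control effect; nearly all actives have a fitted effect of over 65% in size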
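HTRF cAMP measurement after 30 min RT detection following 30 min, 37C compound treatment alongside […] (added as 300 uM solution) in G418-selected cells seeded at 2000/well and grown 16–24 h.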
* marks the source's active call; other numbers are inactive results; ? = inconclusive; nt = not tested or not shown; & = joins results of further samples; [ ] = dose if it differs, or a comment. Compounds were not picked by outcome (roughly 5.1% active in at least one column).

SMILES	ClpP mod	PINK1 modulator	Sfp inh	gsp agonist	D2 agonist	Menin-MLL FL inh	gsp antag
Cc1ccc(CN=c2c([N+](=O)[O-])nn(-c3ccc4c(c3)OCCO4)n2O)cc1	-2.2%	-0.2%	-8%	18%	?	-6.3	-13%
CC1(C)CC(=O)N(CC(=O)NC2CCCC2)c2ccccc2S1(=O)=O	0.3%	-0.3%	-1%	3%	-1.7	1.4	10%
Cc1cccc(OCCCN2CCOCC2)c1	-0.2%	1.0%	15%	-4%[15.4 µM]	-1.7	-2.5	15%
Cc1cc(N2C(=O)C(=O)/C(=C(/O)c3ccccc3)C2c2cccs2)no1 (stereo unspecified)	-0.9%	1.5%	12%	?	0.5	-1.1	-14%
Cc1ccc2c(c1)-c1c(cnn1CC(=O)N1CCCN(Cc3ccccc3F)C1)CO2	-5.3%	-0.2%	10%	33%	7.5	2.2	-17%
O=C(CN1CCN(C(c2ccccc2)c2ccccc2)CC1)NCc1ccccc1	nt	2.9%	-12%	?	-4.4	-1.6	-6%
CC(C)(C)c1ccc(OCC(=O)O/N=C(\N)c2ccncc2)cc1	16µM*	13%	nt	-1%	-3.2	nt	-5%
O=C(N/N=C/c1ccccc1C(=O)O)c1cccc(S(=O)(=O)N2CCCCC2)c1	-0.3%	3.7%	nt	0%	-1.4	nt	-6%
O=C1CCCc2c1[nH]c1ccc(Cl)cc21	-14%	-0.8%	11%	3%[15.4 µM]	-5.2	3.9	11%
Cn1c(N)c(C(=O)COC(=O)/C=C/c2ccc(Cl)cc2Cl)c(=O)n(C)c1=O	0.0%	1.0%	nt	4%[15.4 µM]	-3.8	nt	-3%
O=C(CSc1nnc(-c2ccco2)o1)N1CCOCC1	0.6%	-1.7%[38.3 µM]	-4%	-3%	-0.9	-1.6	-6%
O=S(=O)(NCC1CCCN(Cc2ccccc2)C1)c1cccc2cccnc12 (stereo unspecified)	0.3%	-0.6%	8%	29%	-3.9	nt	12%
CCN1CCN(CC(=O)Nc2cc(S(=O)(=O)N(CC)c3ccccc3)ccc2Cl)CC1	nt	1.0%	nt	9%	-1.0	nt	6%
O=C(Nn1cnnc1)c1ccc([N+](=O)[O-])cc1	nt	-3.7%	13%	?	1.1	-0.7	6%
Cc1ccc(C)c(OCCC(=O)NCCc2ccc(F)cc2)c1	0.6%	3.1%	0%	7%	-5.2	nt	-2%
Nc1nc(Nc2ccccc2F)nc(N2CCOCC2)c1[N+](=O)[O-]	0.7%	-0.7%	8%	-2%[15.4 µM]	1.6	0.4	10%
CCOc1ccccc1NC(=S)NCCCn1ccnc1	-1.5%	0.8%	7%	8%	-4.7	1.4	10%
O=C(NC1CCCC1)C(c1ccncc1)N(C(=O)c1csnn1)c1ccc(F)cc1 (stereo unspecified)	nt	0.4%	11%	16%[15.4 µM]	-0.2	-5.3	nt
CC(C)(C)c1csc(NC(=O)CS(=O)(=O)c2ccccc2)n1	nt	-0.7%	11%	25%	-1.1	-2.0	8%
COCCCn1c(C)csc1=Nc1cccnc1	1.0%	0.5%	5%	-33%[inhibitor]	-2.5	4.2	2%
COC(=O)Cn1ncc(N(C)Cc2ccccc2)c(Cl)c1=O	nt	1.4%	-5%	-28%	-2.4	-8.5	5%
COc1ccc(-c2nc(C)ncc2-c2ccccc2)c(O)c1	-1.3%	1.4%	-4%	?	-0.3	-1.9	-5%
Fc1ccccc1CSc1ncnc2c1ncn2C1CCCCO1 (stereo unspecified)	nt	-0.2%	nt	27%	-2.3	nt	-9%
CCOC(=O)c1cnc2nc[nH]n2c1=O	-16%	-0.4%	-16%	?	-4.6	-1.0	11%
COc1ccc(-c2c(-c3ccccc3OC)oc3ccccc23)cc1F	3.8%	1.3%	nt	5%	-1.8	nt	-14%
CC(C)c1ccc(NC(=S)NCc2cccs2)cc1	-0.6%	0.2%[38.3 µM]	17%	-14%	7.2	1.9	-9%
COc1ccccc1OCCn1c(SCC(N)=O)nc2ccccc21	1.0%	-0.4%	-2%	1%[15.4 µM]	-1.1	0.8	5%
O=C(/C=C/[C@H]1O[C@@H](n2cnc3c(NC(=O)c4ccccc4)ncnc32)[C@H](O)[C@@H]1O)NCC(c1ccccc1)c1ccccc1	2.7%	4.8%	nt	nt	8.8	nt	nt
C=CCNCc1cccn1-c1sc2c(c1C#N)CCCC2	0.5%	-1.4%	-10%	2%	-4.5	-2.7	-5%
Cc1ccc(C2(C)NC(=O)N(CC(=O)N3CCN(S(=O)(=O)c4cccc(F)c4)CC3)C2=O)cc1 (stereo unspecified)	-2.1%	-0.5%	6%	-3%[15.4 µM]	2.5	nt	1%
CCCNC(=O)NC(=O)CSc1nc2ccccc2c(=O)n1Cc1ccncc1	-3.3%	0.6%	19%	5%[15.4 µM]	2.6	0.3	12%
Cc1ccc(C(=O)c2ccccc2C(=O)OCC(=O)NCCc2ccc(Cl)cc2Cl)cc1	-1.0%	3.8%	5%	26%	-1.3	5.0	-9%
CN(Cc1ccccc1)c1c([N+](=O)[O-])c(=O)n(C)c2ccccc12	1.6%	-0.2%	-22%	-24%	-5.6	2.1	?
CCCCN1C(=O)/C(=C/C=C2\SCCN2C)SC1=S	nt	10.0%	-20%	25%[15.4 µM]	-4.9	?	?
CCCN(CC(=O)Nc1ccccc1C)C(=O)Cc1c[nH]c2ccccc12	0.8%	0.1%	nt	21%	-7.1	nt	-23%
CCCc1nnc(SCC(=O)O)n1CC	0.4%	0.9%	26%	-6%	-4.7	0.6	15%
NC(=O)Nc1ccc(C(=O)OCC(=O)Nc2ccc([N+](=O)[O-])cc2C(F)(F)F)cc1	0.4%	-2.1%	-16%	12%[15.4 µM]	-3.8	14	6%
CCOC(=O)c1ccc(NC(=S)NCc2ccc(F)cc2)cc1	-1.1%	?	nt	-45%[inhibitor]	-3.3	nt	-17%
COCc1nnc(NC(=O)c2cc(OC)c(OC)cc2[N+](=O)[O-])s1	-0.5%	1.1%	15%	16%	-1.4	7.4	-6%
O=c1cc(-c2ccccc2)nc2c(Cl)cc(Cl)cn12	-5.2%	3.7%	nt	-40%[inhibitor]	-6.8	nt	nt
CCCS(=O)(=O)NC(=O)C1(C)CCCN(C(=O)c2ccc(OC)cc2)C1 (stereo unspecified)	2.0%	-0.3%	nt	nt	-3.5	nt	nt
Cc1cccc(NC(=O)C(=O)NCC2CCCO2)c1 (stereo unspecified)	-0.3%	2.6%	10%	-2%[15.4 µM]	3.2	0.5	9%
O=C(CSc1ccc(Cl)cc1)Nc1cccc(NC(=O)c2ccco2)c1	0.4%	nt	-2%	-54%[inhibitor]	-1.2	6.7	-23%
O=C(O)c1c[nH]c2nccnc12	-3.9%	2.6%	nt	-52%[inhibitor]	-4.9	nt	nt
O=C(O)c1cccc(S(=O)(=O)N2CCOCC2)c1	1.0%	1.5%[38.3 µM]	20%	-4%	-3.4	1.9	13%
CCn1c(CNC(=O)c2ccc(F)cc2)cc2ccccc21	0.8%	13%	19%	24%	4.9	0.4	7%
c1cc(-n2nnc3cnccc32)ccn1	-0.3%	-1.4%	8%	-1%	0.5	-0.4	6%
O=C(Nc1nc2ccsc2c(=O)s1)C1CCC1	-1.2%	-1.9%	?	-9%[15.4 µM]	-2.8	4.3	12%
Cc1ccc(C(=O)COc2ccc3c(C)cc(=O)oc3c2)cc1	nt	3.6%	10%	-19%	-2.9	-0.1	-8%
Cc1ccc(CNn2cn[nH]c2=S)cc1	-0.2%	1.1%	nt	-2%	-5.9	nt	8%
O=C(OCc1ccc(Br)cc1)c1cccc(-c2nnc(-c3ccccc3)o2)c1	?	3.1%	-6%	-7%	-3.0	1.0	5%
COc1cc(C(O)c2nc(-c3cccc(F)c3)cs2)ccc1F (stereo unspecified)	-6.0%	5.3%	nt	nt	5.2	nt	nt
Cc1cc(C)nc(SCc2cn3c(C)cc(C)nc3n2)n1	nt	0.0%	-20%	-1%[15.4 µM]	-3.1	-1.9	-5%
Cc1ccc(S(=O)(=O)NCCNC(=O)N2CCOCC2)cc1	-0.7%	nt	6%	?	1.1	0.9	-2%
COc1ccccc1-c1nc(NCc2cccnc2)c2ccccc2n1	nt	1.0%	?	nt	nt	5.8	nt
Fc1ccccc1NC(=S)Nc1ccc(Br)cc1	0.1%	?	-23%	-39%[inhibitor]	-3.8	5.8	10%
CCN(CCCNC(=O)c1[nH]c(C)c(C(C)=O)c1C)c1cccc(C)c1	0.3%	-0.9%	5%	-8%	-1.9	1.1	-31%
O=C(Nc1ccc(F)cc1)N1CCc2ccccc2C1	nt	0.7%	-13%	-14%[15.4 µM]	-2.8	4.5	-3%
CSCC(=O)N1CCCC(CNC(=O)c2ccccc2Cl)C1 (stereo unspecified)	nt	-1.8%	-1%	?	0.9	-1.8	3%
CC(C)(C)OC(=O)NCCCC[C@H](NC(=O)c1[nH]cnc1C(=O)Nc1ccccc1)C(=O)OC(C)(C)C	-0.6%	15%	22%	nt	1.7	1.5	-14%
CC(=O)Nc1ccc(NC(=O)c2sc3nc4n(c(=O)c3c2C)CCCCC4)cc1	1.5%	0.8%	25%	35%	-0.7	0.9	-13%
O=C(Nc1nc2c(Cl)c(Cl)ccc2s1)C1CC1	-0.5%	3.6%	-3%	9%	-6.5	1.9	3%
Cc1ccc(NC(=O)Cn2cc(C(=O)C3CC3)c3ccccc32)cc1	-0.4%	5.6%&1.8%	19%	17%[15.4 µM]	-4.5	-0.5	9%
